# Bfl-1 A1 inh – inhibitors of the anti-apoptotic protein A1, read as caspase activation. caspase activation, % (no concentration beside the values). MEF A1-2A-BIM cells, Caspase-Glo 3/7 luminescence, 3 h; percent of clofoctol response, vehicle zero. actives 0.066% (n = 330,000);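 active = over half of replicate activation scores above 10%, or exactly half above 10 with the replicate mean above 10; inconclusive = replicate mean below 10 yet half the replicates above 10; inactive = over half of replicates below 10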;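 note: wells of about 30 µL received 50 nL stock; many hits fall short of the cut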
# LANA-H2B inh – blocks KSHV LANA binding to histone H2A/H2B; Q9QR71; cell-free LANA-H2A/H2B peptide, fluorescence polarization; inhibition, % (no concentration beside the values); actives 0.6% (n = 320,000); in the data active = inhibition mostly above about 10%, no sharp cut-off; inactive = mostly below about 6.7%;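 note: stock transfer was 7.5 nL into about 10 µL; 0% = median of vehicle wells and 100% = median of positive control wells; one replicate is shown; the record names a cut of 25% in any replicate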
# Ecoli growth – inhibitors of Escherichia coli growth. actives 0.21% (n = 330,000). OD600 absorbance (test concentration not listed). OD600, 23 h; active compounds read low;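 active = OD600 absorbance below the run mean of sample wells minus 3.6 SD, in any replicate, cut at about 0.56 in these data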;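 note: stock transfer was 300 nL into about 60 µL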
# UCH37 inh – human UCH37 deubiquitinating enzyme inhibition; purified proteasome/UCH37, Ub-AMC cleavage fluorescence; AID 588478; actives 0.33% (n = 330,000); inhibition, % (test concentration not listed); Q9Y5K5;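 active = mean of two replicates above 20%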;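 note: 0% = compound-free wells with enzyme and 100% = wells lacking proteasome; stock transfer was 100 nL into about 20 µL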
# Target sequence (Q9Y5K5 whole entry, looked up): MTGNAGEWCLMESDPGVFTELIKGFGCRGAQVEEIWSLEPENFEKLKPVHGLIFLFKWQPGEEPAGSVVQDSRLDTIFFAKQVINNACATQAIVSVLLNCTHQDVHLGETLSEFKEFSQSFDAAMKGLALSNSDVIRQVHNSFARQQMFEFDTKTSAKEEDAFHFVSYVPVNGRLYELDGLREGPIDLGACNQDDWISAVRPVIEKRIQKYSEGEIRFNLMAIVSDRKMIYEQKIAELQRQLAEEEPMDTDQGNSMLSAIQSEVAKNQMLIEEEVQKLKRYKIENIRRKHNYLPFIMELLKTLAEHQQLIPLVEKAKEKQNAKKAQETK
#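 Test system – human UCH37 enzyme supplied as purified proteasome complex · Incubation – 30 min preincubation with enzyme, 25 min cleavage at room temperature · Detection – AMC fluorescence from Ub-AMC cleavage, excitation 355 nm, emission 460 nm · Benchmarks – no-proteasome wells (full inhibition) and compound-free wells (no inhibition)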
# Vif A3G – inhibitors of Vif binding to APOBEC3G peptide, primary screen, biochemical, TR-FRET, GST-Vif 1-94, biotin-A3G peptide, dose response retest (AID 1117319); TR-FRET GST-Vif / biotin-A3G peptide binding; higher % means a stronger effect; test concentration not given here; strong numbers were not always called active; inhibition, %, or IC50 in µM where a hit was titrated; actives 0.57% (n = 260,000);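 active = above the screen mean plus three standard deviations and confirmed in dose response; inconclusive = results disagree or hit not tested in dose response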;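 note: Vif residues 1-94 fused to GST binding biotinylated APOBEC3G peptide 110-148; 0% = full assay without inhibitor and 100% = GST in place of GST-Vif; retest series ran down from 100 µM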
# HNF4A DNA FP – change in binding of human HNF4 alpha to DNA; AID 1224865; actives 0.3% (n = 360,000); HNF4a-FITC DNA binding, fluorescence polarization, 1 h; activity change, % at 10 µM; in the data active = activity change above about 30%, passing the limit was not always enough;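 note: controls were the assay level and a saturating level of protein; the project sought stronger binding though the title names inhibitors; some compounds called inactive have numbers as strong as hits; positive values seem to mean higher polarization but the record does not say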
# Target sequence (P41235 whole entry, looked up): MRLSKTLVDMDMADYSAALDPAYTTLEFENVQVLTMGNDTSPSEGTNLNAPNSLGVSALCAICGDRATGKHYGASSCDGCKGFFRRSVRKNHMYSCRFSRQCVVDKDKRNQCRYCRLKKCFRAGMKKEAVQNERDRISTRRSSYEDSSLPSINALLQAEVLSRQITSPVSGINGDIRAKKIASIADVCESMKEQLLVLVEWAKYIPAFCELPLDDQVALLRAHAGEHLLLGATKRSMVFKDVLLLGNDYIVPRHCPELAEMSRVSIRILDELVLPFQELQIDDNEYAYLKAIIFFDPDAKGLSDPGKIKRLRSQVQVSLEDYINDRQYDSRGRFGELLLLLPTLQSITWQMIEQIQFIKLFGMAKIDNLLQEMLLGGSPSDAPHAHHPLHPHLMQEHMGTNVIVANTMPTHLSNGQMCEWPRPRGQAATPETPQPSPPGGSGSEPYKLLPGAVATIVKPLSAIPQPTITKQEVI
# B2AR ag – agonists of human beta-2 adrenergic receptor inducing internalization; response, % (concentration not given with the values); Am2.2-beta2AR cells, FAP receptor internalization, flow cytometry; reference of the scale not given here; actives 0.43% (n = 340,000); P07550;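 active = response above a set limit, near 3 SD of response in nonfluorescent compounds, cut at about 42% in these data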;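 note: stock transfer was 100 nL into about 11 µL; a reference agonist was the positive control; negative values mostly stem from fluorescent compounds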
# An asterisk follows results filed as active; i = inactive; ? = inconclusive; . = not tested or not shown; & = joins results of further samples.
# Second line of a record – LANA-H2B inh	UCH37 inh	B2AR ag	Ecoli growth	HNF4A DNA FP	Vif A3G	Bfl-1 A1 inh
- Cc1csc(=O)n1CC(=O)OCc1cccc2ccccc12
 : -3.5	1.9	-1.2	0.713	1.9	29.8%	0.3
- CCOc1ccc(/C=C2/Sc3ccc(C(=O)NCC4CCCO4)cc3N(C)C2=O)cc1OC (stereo unspecified)
 : -4.7	-2.6	1.5	0.699	3.4	-5.6%	-0.1
- COc1ccc(-c2cc(C(=O)OCC(=O)NC(C)C)c3ccccc3n2)cc1
 : 2.4	-160.3	-4.3	0.676	-4.1	.	-0.5
- Cc1cc2c(cc1C)N(CC(=O)N1CCCC1)C(=O)CC(c1ccccc1)=N2
 : 0.4	7.2	2.2	0.652	2.2	-5.0%	0.7
- BrC(/C=N/Nc1nc(N2CCOCC2)nc(N2CCOCC2)n1)=C/c1ccccc1
 : 4.2	.	-6.8	.	-8.9	1.2%	0.5
- NC(=O)CSc1nc2ccccc2nc1SCC(N)=O
 : 0.2	4.7	-10.5	0.705	-0.1	3.2%	0.8
- O=C(COc1ccccc1Cc1ccccc1)Nc1cccnc1
 : 2.8	-2.1	-14.7	0.629	1.0	.	0.2
- O=C1c2cccnc2C(=O)N1Cc1ccccc1
 : -1.9	2.3	-1.8	0.723	1.1	29.4%	0.1
- O=C1NC(=S)S/C1=C\c1coc2ccccc2c1=O
 : 1.0	-31.0	-90.0	0.682	4.0	-5.5%	-1.1
- Cc1cc(C)c2nc(N(CCCN(C)C)C(=O)C3=COCCO3)sc2c1
 : -4.4	-0.3	14.8	0.691	2.4	1.2%	-0.1
- COC(=O)Cc1[nH]nc2c1C1(CCSCC1)C(C#N)=C(N)O2
 : -17.8	2.7	0.5	0.698	1.1	5.1%	-0.4
- COCCCNC(=O)c1ccc(Cn2c(=O)c3ccccc3n(Cc3ccc(C)cc3)c2=O)cc1
 : 3.9	1.5	5.6	0.739	-1.8	1.3%	0.0
- COc1ccc(S(=O)(=O)NC2CCCC2)cc1C(N)=O
 : -0.2	-0.2	1.0	0.697	1.1	.	3.1
- Cc1ccc(NC(=O)c2cnc(SCC(=O)c3ccccc3)n(C)c2=O)cc1
 : 0.9	i	-5.0	0.631	7.7	5.9%	0.9
- CCNC(=O)COC(=O)c1cc(S(=O)(=O)N2CCCc3ccccc32)ccc1Cl
 : -11.0	0.8	22.3	0.647	-2.5	.	0.3
- CCCN1CNC(=S)N(CCc2ccccc2)C1
 : -3.9	0.9	-2.2	0.672	-0.2	4.1%	-5.4
- O=C(NC1CCCCC1)C(c1ccc2ncccc2c1)N(Cc1ccco1)C(=O)c1ccc2c(c1)OCCO2 (stereo unspecified)
 : 5.6	5.6	-12.6	0.662	-0.8	5.1%	0.8
- CC(Sc1ccsc1[N+](=O)[O-])C(=O)NCc1ccco1 (stereo unspecified)
 : -2.2	5.6	2.8	0.693	0.7	.	0.6
- c1ccc(-n2c(SCc3ccncc3)nnc2-c2ccco2)cc1
 : -3.7	1.5	-1.2	0.685	-1.9	68.2%	1.3
- O=C(CSc1nc2c(c(=O)n1-c1ccc(F)cc1)SCC2)NCc1ccco1
 : -1.8	5.9	-2.2	0.725	-2.1	18.2%	-0.5
- CC1(C)N=C(N)NC(Nc2ccc(Cl)cc2)=N1
 : .	2.0	-2.0	0.703	2.9	-1.4%	.
- COCCN(C(=O)CSc1nc2ccc(Cl)cc2[nH]1)c1c(N)n(Cc2ccccc2)c(=O)[nH]c1=O
 : -0.6	2.7	0.0	0.73	3.5	.	-0.4
- C=CCN(C(=O)c1csnn1)C(C(=O)NCc1ccc(F)cc1)c1ccc(F)cc1 (stereo unspecified)
 : 4.4	-3.6	-0.6	0.635	-3.6	1.6%	-0.1
- COc1ccc(S(=O)(=O)N2CCOCC2)cc1NC(=O)C1CCCN1C(=O)c1cccs1 (stereo unspecified)
 : .	-3.1	-1.4	0.713	2.2	-1.5%	.
- O=C(Nc1ccc(S(=O)(=O)N2CCOCC2)cc1)c1nn(-c2ccc(F)cc2)ccc1=O
 : -6.3	6.1	3.4	0.668	0.2	.	0.3
- CCC(=O)N1C(=O)CCN(C(C)=O)c2ccccc21
 : -0.5	3.4	-2.6	0.7	-0.6	18.2%	-0.9
- O=C(CN(C(=O)CCNC(=O)c1ccco1)c1ccccc1)NC1CCCC1
 : 2.4	4.8	1.0	0.718	-1.9	70.1%	-0.4
- O=C1CC(c2nc3ccccc3[nH]2)CN1c1ccccc1 (stereo unspecified)
 : 5.5	1.4	0.7	0.683	-2.0	0.4%	0.7
- Cc1cc(C)c2nc(Cl)c(C3NC(=O)c4ccccc4N3)cc2c1 (stereo unspecified)
 : -0.8	-11.5	10.2	0.705	9.7	2.7%	-0.4
- CCOC(=O)N1CCN(C(=O)c2ccc3c(=O)n(CCC4=CCCCC4)c(=S)[nH]c3c2)CC1
 : 0.4	-0.8	4.6	0.712	2.1	-4.4%	-1.8
- CCN(CC)CCNc1nc(C(F)(F)F)nc2c1nnn2Cc1ccccc1
 : -0.7	1.9	-2.9	0.684	1.9	.	0.0
- COC(=O)[C@]1(Cc2ccccc2)N[C@H](CN(C)S(=O)(=O)c2ccc(F)cc2)[C@@H]2C(=O)N(C)C(=O)[C@@H]21
 : .	1.4	7.2	0.724	-0.7	-0.7%	0.9
- CCn1nnnc1-c1ccc(OC)c(S(=O)(=O)Nc2ccc(C(=O)OC)cc2)c1
 : -13.9	2.3	3.5	0.673	-0.4	1.5%	-0.1
- O=C(CN1CCOCC1)Nc1ccccc1C(=O)Nc1ccccc1
 : 6.6	2.2	1.1	0.684	1.4	.	0.0
- CS(=O)(=O)c1ccccc1C(=O)NC1CCCc2ccccc21 (stereo unspecified)
 : 2.4	4.7	5.0	0.66	6.8	.	0.9
- Cc1cc(CNCc2cn(C)nc2-c2ccc(Oc3ccccc3)cc2)on1
 : 0.3	4.8	-9.3	0.718	2.9	27.3%	0.7
- COc1ccccc1Nc1ncc(C(=O)N2CCC(C(N)=O)CC2)c2ccccc12
 : 0.5	-2.2	6.9	0.706	-0.6	-4.9%	-0.9
- Cc1cc(C)cc(N(C)S(=O)(=O)c2nnc(NC(=O)C(C)C)s2)c1
 : 3.4	3.3	-1.1	0.717	-2.8	-5.3%	0.5
- CCOC(=O)n1c(SCC(=O)N(CC)CC)nc2ccccc21
 : -0.9	3.7	-8.8	0.693	-4.1	-1.7%	-0.3
- CCOCCCn1c(=S)[nH]c2cc(C(=O)N3CCC(C(N)=O)CC3)ccc2c1=O
 : -3.9	3.6	2.4	0.727	3.8	7.9%	0.2
- Cc1ccc(S(=O)(=O)C(C#N)c2nc3ccccc3nc2N2CCC(C)CC2)cc1 (stereo unspecified)
 : .	-5.6	0.1	0.694	-4.2	0.1%&2.1%	.
- CCOC(=O)C1CCCN(C(=O)c2cc3c(OC)c(OC)c(OC)cc3[nH]2)C1 (stereo unspecified)
 : -0.7	-2.3	6.4	0.657	-0.1	-0.3%	1.3
- CCS(=O)(=O)C1=NN2C(=N)/C(=C\c3ccc(OS(=O)(=O)c4ccccc4)cc3)C(=O)N=C2S1
 : 0.1	.	-2.6	.	-3.2	.	-12.1
- CCOC(=O)C1=C(C)NC(=O)NC1c1ccc2c(c1)OCO2 (stereo unspecified)
 : -1.8	3.1	-4.8	0.721	-1.2	3.7%	0.3
- O=C(COc1ccccc1F)N1N=C(c2cccs2)CC1c1ccco1 (stereo unspecified)
 : .	-10.4	5.7	0.634	0.5	11.7%	.
- O=C(CCc1nnc2n(Cc3ccccc3Cl)c(=O)c3ccccc3n12)NCCCN1CCOCC1
 : -5.0	4.4	-6.4	0.694	-2.4	.	0.2
- COc1ccc2c(C)cc(SCn3nnc4ccccc4c3=O)nc2c1
 : -0.9	4.9	-9.5	0.676	2.1	.	1.0
- CCOC(=O)Cc1csc(NC(=O)Nc2cccc(OC)c2)n1
 : 1.5	2.6	4.0	0.637	3.9	-0.6%	-0.5
- CCO[C@@H]1OC(C(=O)N2CCOCC2)=C[C@H](C)[C@H]1CCCO
 : 3.2	-0.6	-4.5	.	-1.0	-1.7%	0.9
- O=C(Nc1ccccc1)c1ccccc1OCc1cccc([N+](=O)[O-])c1
 : -3.9	5.4	4.0	0.692	1.2	2.0%	-0.2
- c1ccc(CNc2ncnc3sc4c(c23)CCCC4)nc1
 : -2.6	.	-19.0	.	3.0	-3.8%	-0.2
- CC1CCN(CCCNC(=O)C2CC(=O)N(CCc3ccccc3)C2)CC1 (stereo unspecified)
 : 2.5	-1.3	-4.1	0.629	-0.1	.	0.4
- O=C(Nc1ccccc1)NC1CCN(CCCN2C(=O)c3ccccc3C2=O)CC1
 : -0.3	3.9	-14.8	0.702	-2.0	75.3%&-8.2%	-0.3
- Cc1ccnc(N/C=C(/NC(=O)c2ccccc2)C(=O)NN)n1
 : 7.5	4.0	2.0	0.658	4.2	-6.5%	0.0
- Cc1onc(-c2c(Cl)cccc2Cl)c1C(=O)c1c[nH]c(C(=O)NCC2CCCO2)c1 (stereo unspecified)
 : .	2.6	6.7	0.733	-3.3	11.0%	0.4
- COC(=O)c1sc(NC(=O)/C=C/c2ccccc2Cl)nc1C
 : -1.5	-69.1	1.5	0.702	46.9*	-10.0%	0.2
- CC(CNC(=O)CCn1c(=O)c2cccn2c2ccc(F)cc21)c1ccccc1 (stereo unspecified)
 : 1.4	-5.2	38.5	0.697	1.1	-4.0%	-1.7
- OC(COc1ccc(CN2CCSCC2)cc1)CN1CCCCC1 (stereo unspecified)
 : 0.1	0.9	-1.8	0.675	1.8	1.1%	-0.9
- Fc1ccc(OCc2nnc(SCCN3CCOCC3)o2)cc1
 : -1.4	-0.1	-4.7	0.737	-4.3	0.7%	-1.0
- O=C(Nc1ccnn1C1CCN(C(=O)c2ccc(Cl)cc2)CC1)C1CC1
 : 1.8	0.5	-4.9	0.714	-0.6	.	-0.5

# Next part:
# Second line of a record – LANA-H2B inh	UCH37 inh	B2AR ag	Ecoli growth	HNF4A DNA FP	Vif A3G	Bfl-1 A1 inh
- CCC(=O)OCc1cc(=O)oc2ccc3ccccc3c12
 : 1.6	i	-12.5	0.637	-3.6	-2.8%	0.3
- C=CCn1c(SCC(=O)NCC(c2ccccc2)N(C)C)nnc1C1CCCCC1 (stereo unspecified)
 : -3.0	3.6	-1.5	0.672	-0.8	?	-0.2
- COc1ccc(N2C(=O)c3cc4ccccc4cc3C2=O)cc1
 : -3.2	1.7	0.9	0.691	4.0	0.3%	0.5
- Cc1cc(C)[n+](Cc2ccccc2)cc1C(N)=O
 : -3.6	2.0	0.1	0.661	1.6	.	0.8
- Cc1cc(C)c2c(=O)[nH]c(SCc3ccccc3C)nc2n1
 : -1.9	-0.3	-8.8	0.697	2.4	6.2%	-0.3
- CCCCOC(=O)/C=C/c1c(C)[nH]c(=O)[nH]c1=O
 : -8.3	5.3	1.8	0.626	-0.6	3.2%	0.3
- CCOc1ccc(-n2cc(C(=O)NCc3ccco3)c3cc(OC)c(OC)cc3c2=O)cc1
 : -11.2	-1.3	10.5	0.724	-0.6	-8.3%	-1.8
- CCC1Nc2ncnc(N3CCN(c4ccccn4)CC3)c2N(Cc2ccc(Br)cc2)C1=O (stereo unspecified)
 : -1.3	2.5	13.6	0.691	6.8	.	0.8
- COCCn1c(=S)[nH]c2cc(C(=O)N3CCN(c4cccc(Cl)c4)CC3)ccc2c1=O
 : 0.9	1.1	19.0	0.644	-3.6	.	0.8
- CCOC(=O)C1CCN(CC(O)COc2ccc(C(C)=O)cc2)CC1 (stereo unspecified)
 : -1.6	4.8	8.6	0.732	-1.0	-1.4%	0.1

# Bioassay records (PubChem)
